GIRK2 activ: opens human GIRK2 potassium channels; AID 1259325; HEK293-GIRK2 thallium flux, Thallos fluorescence; calls only for hits at 25 µM; hit rate 0.05% among 63,000; P48051;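 active = among the strongest 0.2% of first-round signals and kept after retests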;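 also: first round at about 10 µM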
Target sequence (P48051 whole entry, looked up): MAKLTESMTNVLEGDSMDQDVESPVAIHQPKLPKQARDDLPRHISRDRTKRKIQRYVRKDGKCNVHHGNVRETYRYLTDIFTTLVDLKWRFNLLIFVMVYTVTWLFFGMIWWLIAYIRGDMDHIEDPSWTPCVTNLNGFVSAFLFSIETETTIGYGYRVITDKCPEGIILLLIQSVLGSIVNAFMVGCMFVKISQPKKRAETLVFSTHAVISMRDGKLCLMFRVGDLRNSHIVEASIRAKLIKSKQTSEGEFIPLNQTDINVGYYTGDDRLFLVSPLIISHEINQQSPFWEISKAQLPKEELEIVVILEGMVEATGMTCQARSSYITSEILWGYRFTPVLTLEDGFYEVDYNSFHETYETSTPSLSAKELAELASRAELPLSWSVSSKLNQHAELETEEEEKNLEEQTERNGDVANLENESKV
Calls only; i = inactive. The list is partial; count on the stated rates, not on these rows.

SMILES	GIRK2 activ
COc1cc(OC)c(OC)cc1C=Nc1ccccc1C(=O)O	i
O=C(NCCOc1cc(N2CCCC2)ncn1)c1ccccc1C(F)(F)F	i
COCCNC(=O)C(=O)c1cn(CC(=O)N2CCCCC2)c2ccccc12	i
Cc1cccc(OCC(=O)NCC#CCN2CCCCC2)c1	i
Cn1c(SCC(=O)Nc2ccc3c(c2)OCCO3)nc2cc(-c3ccccc3)sc2c1=O	i
COc1cccc2cc(-c3nnc(NC(=O)c4ccco4)o3)oc12	i
COC(=O)C[C@H]1[C@]2(C)C3=C(C)[C@H](c4ccoc4)C[C@H]3O[C@@H]2[C@H](O)C2[C@](C)(C(=O)OC)C=CC(=O)[C@@]21C (some centres undefined)	i
Cn1c(CN2CCN(C(=O)Nc3ccc(C(C)(C)C)cc3)CC2)nc2ccccc21	i
Cc1ccc(Nc2c(Cl)cccc2Cl)c(CC(=O)O)c1	i
Cc1ccc(N2CCCS2(=O)=O)cc1NC(=O)C(=O)NCCN(C)C	i
COc1ccccc1CNC(=O)C(=O)NCCC1CCCCN1S(=O)(=O)c1cccs1 (centres undefined)	i
COc1ccc(CNC(=O)c2[nH]c3ccccc3c2NC(=O)c2cccc(C)c2)cc1OC	i
O=C(c1cc(Br)ccc1Cl)N1C2CCC1COC2	i
CCOc1ccc(-c2cc(-c3nc(-c4cc(OC)c(OC)c(OC)c4)no3)[nH]n2)cc1Cl	i
CCOc1ccc(NC(=O)c2ccc(CNS(=O)(=O)c3cccc(Cl)c3)cc2)cc1	i
Cc1ccc(-c2ccc(N3CCCC(C(=O)NCc4ccccn4)C3)nn2)cc1C (centres undefined)	i
Cc1ccc(=O)n(C(C)C(=O)NCc2cccs2)n1 (centres undefined)	i
COc1ccc(CCNC(=O)CCn2cnc3c([nH]c4cc(OC)c(OC)cc43)c2=O)cc1OC	i
Cn1c(=O)c2[nH]c(NC3CCCCC3)nc2n(C)c1=O	i
CCOc1ccccc1-c1csc(NC(=O)CC(C)(C)C)n1	i
Cn1nc(-c2ccccc2)cc1C(=O)Nc1ccccc1-c1ccc(=O)[nH]n1	i
COC(=O)c1ccc(NC(=O)C(=O)NCc2ccco2)cc1	i
COc1ccc(-c2cc(SCc3cc(OC)cc(OC)c3)ncn2)cc1	i
COc1c(C)cc(S(=O)(=O)NCC2(c3cccs3)CCOCC2)cc1C	i
CCS(=O)(=O)c1cccc(C(=O)Nc2nnc(-c3ccsc3)o2)c1	i
COc1ccccc1C1C(C(=O)c2ccc(C)o2)=C(O)C(=O)N1c1cc(C)on1 (centres undefined)	i
O=C(c1ccccc1Cl)N1CCN(C(=O)C2CC2c2cccs2)CC1 (centres undefined)	i
Cc1c(NC(=O)C2(c3cccs3)CCCC2)c(=O)n(-c2ccccc2)n1C	i
O=C(NCc1ccncc1)c1coc(NC(=O)c2cnccn2)n1	i
CCN1C(=O)Cc2cc(NC(=O)c3cc(-c4ccccc4)nn3C)ccc21	i
Cc1cc(OCC(=O)Nc2ccccc2C(F)(F)F)nc(N2CCCCCC2)n1	i
O=c1n(Cc2ccc(F)cc2)nc2ccc(-c3ccccc3)nn12	i
Cc1cc(Br)cc(C)c1OCC(=O)Nc1ccc(N2CCOCC2)cc1	i
O=C(CCc1nc2sc3c(c2c(=O)[nH]1)CCCCC3)NCc1ccccc1	i
COc1ccc(OC)c(S(=O)(=O)N2CCN(c3cccc(C(F)(F)F)c3)CC2)c1	i
CN(C)S(=O)(=O)c1ccc(C(=O)N2CCC(Cn3c(C(F)(F)F)nc4ccccc43)CC2)cc1	i
Cc1cc(-n2nnc(C(=O)NCCc3ccc(S(N)(=O)=O)cc3)c2C)ccc1F	i
Cc1nc(-c2ccc(N3CCN(C(=O)c4ccc5ncsc5c4)CC3)nc2)no1	i
CC(C)c1ccc(NC(=O)CCCCCn2cnc3ccccc3c2=O)cc1	i
COc1ccc(-c2cc3c4nn(CC(=O)Nc5ccc(OC)c(Cl)c5)c(=O)n4ccn3n2)cc1	i
O=C(NCCOc1cc(N2CCCCC2)ncn1)c1cc2ccccc2oc1=O	i
O=C(Cn1cccc1)Nc1cc(-n2cccn2)ncn1	i
O=C(c1cccs1)N(CCCn1ccnc1)c1nc2c(F)cc(F)cc2s1	i
CC(=O)NC1=NN(C(C)=O)C2(S1)C(=O)N(CCC(C)C)c1ccc(C)cc12 (centres undefined)	i
O=C(NCc1cccs1)Nc1ccc(-n2ccnc2)nc1	i

Of the compounds above, 2 have bromine:
SMILES	GIRK2 activ
O=C(c1cc(Br)ccc1Cl)N1C2CCC1COC2	i
Cc1cc(Br)cc(C)c1OCC(=O)Nc1ccc(N2CCOCC2)cc1	i

Further records:
SMILES	GIRK2 activ
COc1cccc(-c2csc(Cc3nc(-c4ccccc4Cl)no3)n2)c1	i
CSc1ccc(-c2noc(Cn3nc4ccc(-c5ccccc5)nn4c3=O)n2)cc1	i
Cc1cc(C)c(NC(=O)Cn2ccn3nc(-c4ccc(Cl)cc4)cc3c2=O)c(C)c1	i
CC(=O)N1N=C(C2CC2)CC1c1cc2cc3c(cc2nc1Cl)OCCO3 (centres undefined)	i
COc1ccc(Cl)cc1NC(=O)N1CCc2nc(NC(=O)C3CCCO3)sc2C1 (centres undefined)	i
COc1ccc(OC)c(-c2c(C)c3cc(OCC(N)=O)ccc3oc2=O)c1	i
O=C(CSc1nnc(Cn2ccc(=O)[nH]c2=O)o1)N1CCc2ccccc21	i
COc1ccc(OC)c(NC(=O)CSc2nc3c(sc(=S)n3-c3ccccc3)c(=O)[nH]2)c1	i
CS(=O)(=O)c1ccc(-c2nnc(SCc3ccc([N+](=O)[O-])cc3)o2)cc1	i
CCOCCn1c(=O)c2c(nc3n2CCCN3c2ccc(OC)c(Cl)c2)n(C)c1=O	i
Cc1cc(C)n(-c2ccc(=O)n(CCNC(=O)COc3ccc4c(c3)OCO4)n2)n1	i
COc1ccc(N2C(=O)C3N=NN(CC(=O)Nc4cc(C)cc(C)c4)C3C2=O)cc1 (centres undefined)	i
N=C(N)SCCc1cccc(CCSC(=N)N)c1	i
CCCn1c(=O)c2c(nc3n(-c4ccccc4OC)c(-c4ccccc4)cn23)n(C)c1=O	i
CCCc1cc(OCCCN2CCCc3c(OC(C)(C)C(=O)O)cccc32)cc(C(=O)c2ccc(-c3ccccc3)cc2)c1	i
CCc1ccc(S(=O)(=O)NCCC(O)c2cc(C)oc2C)s1 (centres undefined)	i
COc1ccc(-c2noc(-c3ccc(SCC(=O)N4CCCC4)nc3)n2)cc1	i
Cc1ccc(Cl)c2sc(N3CCN(S(C)(=O)=O)CC3)nc12	i
CC(O)CNc1nc2c(c(=O)n(C)c(=O)n2C)n1CC(O)COc1ccccc1 (centres undefined)	i
CCn1cc(/C=c2/sc3n(c2=O)C(c2ccccc2)C(C(=O)Nc2ccccc2C)=C(C)N=3)c(C)n1 (centres undefined)	i
Cc1ccc(CNC(=O)COc2cc(C)nc(N3CCCCC3)n2)cc1	i
Cc1cc(C)n(-c2ccc(=O)n(CCNS(=O)(=O)c3ccccc3C(F)(F)F)n2)n1	i
CCOC(=O)N1CCN(C(=O)Nc2nc(CC(=O)NCc3ccco3)cs2)CC1	i
CN(C)C(=O)c1nnn(-c2ccc(NC(=O)C3CC=CCC3)cc2)n1 (centres undefined)	i
CC(C)Cn1c(=O)c2ccccc2n(Cc2nc(-c3cccc(Cl)c3)no2)c1=O	i
C/C=C/Cn1c(=O)c2c(nc3n2CCN3c2cccc(C)c2)n(C)c1=O	i
Cc1cn2c(nc3c2c(=O)n(Cc2ccc(Br)cc2)c(=O)n3C)[nH]1	i
O=C(NCCCn1nc(-c2ccccc2)ccc1=O)c1cc2ccccc2oc1=O	i
CCCCCCCCCCCCC/C=C/[C@@H](O)[C@@H](N)CO	i
CCOC(=O)c1ccc(Nc2cc(Cl)nc(N)n2)cc1	i

Pulled one by one from the entries so far, 2 records:
SMILES	GIRK2 activ
Cc1cc(C)n(-c2ccc(=O)n(CCNS(=O)(=O)c3ccccc3C(F)(F)F)n2)n1	i
COc1ccc(-c2noc(-c3ccc(SCC(=O)N4CCCC4)nc3)n2)cc1	i

Another view of four compounds above:
Cc1cc(C)c(NC(=O)Cn2ccn3nc(-c4ccc(Cl)cc4)cc3c2=O)c(C)c1
  GIRK2 activ: i

COC(=O)c1ccc(NC(=O)C(=O)NCc2ccco2)cc1
  GIRK2 activ: i

Cc1nc(-c2ccc(N3CCN(C(=O)c4ccc5ncsc5c4)CC3)nc2)no1
  GIRK2 activ: i

Cc1cc(C)n(-c2ccc(=O)n(CCNC(=O)COc3ccc4c(c3)OCO4)n2)n1
  GIRK2 activ: i

Next entries:
SMILES	GIRK2 activ
CCOc1ccccc1NC(=O)c1cc(=O)c(OCC)cn1C	i
Cc1ccc(NC(=O)CSc2nnc(CCc3c(C)[nH]c(=O)n(C)c3=O)o2)cc1F	i
CCOc1ccc(NC(=O)CSc2cc(C)nc(-c3cccnc3)n2)cc1	i
Cn1c(=O)[nH]c(=O)c2c1nc(CN1CCN(Cc3ccccc3)CC1)n2CC(N)=O	i
COc1cccc(-c2csc3c(=O)[nH]c(N4CCCC(C(=O)NC5CCCCC5)C4)nc23)c1 (centres undefined)	i
Cc1cccc(Nc2ccncc2S(=O)(=O)NC(=O)NC(C)C)c1	i
COc1ccc(Nc2nccc(NCCO)n2)cc1	i
COc1ccc(C2=NN(S(C)(=O)=O)C(c3cn(-c4ccccc4)nc3-c3ccccc3)C2)cc1 (centres undefined)	i
CCOC(=O)N1CCN(c2ccc(S(=O)(=O)Cc3ccc(Cl)cc3)nn2)CC1	i
CC(C)S(=O)(=O)NCCc1nc(C2CC2)cc(C(F)(F)F)n1	i
COc1cc(OC)c(OC)cc1/C=C1\Oc2cc(OCC(=O)OC(C)C)ccc2C1=O	i
O=C(NCC(O)c1ccoc1)Nc1cccs1 (centres undefined)	i
Cc1ccc(NC(=O)Cn2c(=O)n(CC(=O)NC3CC3)c(=O)c3oc4ccccc4c32)cc1	i
COc1ccc(CNC(=O)N2CCC(c3nnc(-c4ccco4)s3)CC2)cc1	i
COc1ccc(Cn2c(-c3ccco3)nc3oc4ccccc4c(=O)c3c2=O)cc1	i

Four entries already listed, ordered by molecular weight, ascending:
SMILES	GIRK2 activ
COc1ccc(Nc2nccc(NCCO)n2)cc1	i
Cc1cccc(Nc2ccncc2S(=O)(=O)NC(=O)NC(C)C)c1	i
Cn1c(=O)[nH]c(=O)c2c1nc(CN1CCN(Cc3ccccc3)CC1)n2CC(N)=O	i
Cc1ccc(NC(=O)Cn2c(=O)n(CC(=O)NC3CC3)c(=O)c3oc4ccccc4c32)cc1	i

Next results:
SMILES	GIRK2 activ
CN(C)c1ccc(C(=O)NCc2ccc(C(O)c3cccs3)s2)cc1 (centres undefined)	i
COc1ccc(NC(=O)c2cnc(N3CCN(C(=O)c4ccco4)CC3)nc2N)cc1	i
COc1cccc(NC(=O)c2ccc3noc(-c4ccccc4)c3c2)c1	i
Cc1ccccc1NC(=O)CSC1=Nc2ccccc2N=C(c2ccccn2)C1	i
COc1ccc(-c2cn3c(C(=O)NCCc4ccc(S(N)(=O)=O)cc4)csc3n2)cc1	i
Cc1ccc2c(Nc3ccc(F)c(C#N)c3)c(C(=O)N3CCCCCC3)cnc2n1	i
CCCCS(=O)(=O)NCC1CCN(C)CC1	i
CCc1nccn1CC1CCN(C(=O)Cc2coc3c(C)c(C)ccc23)CC1	i
CN(C)CC#CCNC(=O)c1cc(-c2ccccc2)nn1C	i
O=C(NCCc1ccccc1)NC1CCCC(OC(=O)Nc2ccc(F)cc2)C1 (centres undefined)	i
COC(=O)c1ccc(NC(=O)Cn2cccc(-c3nc(-c4ccc(OC)c(OC)c4)no3)c2=O)cc1	i
O=C(Nc1ccccc1)OC1CCCC(NC(=O)c2cc3ccccc3o2)C1 (centres undefined)	i
O=C(c1csc(Nc2ccc(OC(F)F)cc2)n1)N1CCc2ccccc21	i
CCOC(=O)c1cn[nH]c1S(=O)(=O)Nc1cc(OC)ccc1OC	i
O=C(CSC1CCCC1)Nc1ccc(CC(=O)NC2CC2)cc1	i
Cc1cc(C)c(S(=O)(=O)N(C)c2ccsc2C(=O)N2CCOCC2)c(C)c1	i
COc1cccc(NC(=O)N2CCC3(CC2)OCCCO3)c1OC	i
O=C(c1nnn(-c2ccc(C(F)(F)F)cc2)n1)N1CCN(C(=O)c2ccco2)CC1	i
COc1ccc(/C=C2\SC(=S)N(c3ccc(O)cc3)C2=O)cc1	i
CN(C)C(=O)CSc1nc2ccc([N+](=O)[O-])cc2s1	i
O=C1OC2CC1N(C(=O)/C=C/c1ccc3c(c1)OCO3)C2 (centres undefined)	i
O=C(NCCOc1ccc(F)cc1)c1cc(-c2cccs2)[nH]n1	i
O=C(Nc1cnc(N2CCN(c3ccccc3)CC2)nc1)c1cccc2ccccc12	i
O=C(CCS(=O)(=O)Cc1ccccc1)Nc1nc(-c2ccccc2)c(C(=O)c2ccccc2)s1	i
O=C(CSCc1ccccc1)Nc1ccc2c(c1)C(=O)Nc1ccccc1O2	i
CCOc1ccc(S(=O)(=O)c2cnc(SCC(=O)Nc3cc(F)ccc3F)[nH]c2=O)cc1	i
Cc1cc(C)c(C(=O)NCCCS(=O)(=O)N2CCc3ccccc3C2)c(C)c1	i
COc1ccc(NC(=O)N2CCC(COCc3ccccc3)CC2)cc1OC	i
COc1ccc(OC)c(NC(=O)c2n[nH]n3c2nc(=O)c2cc(F)ccc23)c1	i
COc1ccc(OC)c(-c2cc(C(=O)NCCc3ccsc3)n(C)n2)c1	i
CCCc1nnsc1C(=O)Nc1nnc(Cc2ccc(F)cc2)o1	i
C/C=C(/C)C(=O)O[C@H]1C=C(CO)C(=O)[C@H](OC(=O)/C(C)=C/CO)[C@H]1C(C)C	i
CSc1ncccc1C(=O)NCC(c1cccn1C)N1CCCC1 (centres undefined)	i
Cc1ccc2c(Nc3ccc4c(c3)OCO4)c(C(=O)N3CCOCC3)cnc2n1	i
CN1CCN(c2ncc(NC(=O)Nc3ccc4ccccc4c3)cn2)CC1	i

From PubChem BioAssay
